# From PubChem BioAssay
# BmaI1 enzyme: BmaI1 acyl-homoserine lactone synthase inhibition – biochemical, fluorescence intensity, with counterscreen (AID 720554) | BmaI1 enzyme assay, fluorescence intensity; hits give high values; test concentration not given here; a few actives read low; strong numbers were not always called active | hit rate 0.4% among 12,000 | inhibition, %;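 active = both replicates within 2 robust z-scores of the inhibited control and a quiet counterscreen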;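 also: 0% = uninhibited enzyme and 100% = inhibited control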
# BmaI1 enzyme counterscreen: further read-out of BmaI1 enzyme, marked with its call; inhibition, %; measured here: counterscreen; design of the counterscreen not given here;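 first of two replicates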
# Numbers without * were called inactive. Only part of the results is shown (hit frequency here may not be typical).
structure | BmaI1 enzyme | BmaI1 enzyme counterscreen
CCC(C)NC(=O)c1nn(Cc2ccccc2)c(=O)c2ccccc12 (configuration not stated) | 4 | 2
COC(=O)CCn1c(C)cc(C(=O)CSc2cccc[n+]2[O-])c1C | 8 | 1
N#CC(C#N)=C1C=C2C=C(N3CCCCC3)CCC2CC1 (configuration not stated) | 35 | 6
O=C(CSc1nnc(-c2ccc(Cl)cc2)o1)NC1CCSc2ccccc21 (configuration not stated) | 15 | 10
O=C(CNCCC1=CCCCC1)Nc1ccc2[nH]c(=O)[nH]c2c1 | 27 | 17
N#CC1(NC(=O)COc2cccc(C(F)(F)F)c2)CCCCC1 | 9 | 8
COc1ccc2cc([C@H](C)C(=O)O)ccc2c1 | 4 | 0
COc1ccc(CCNc2ncccc2C#N)cc1OC | 19 | 15
Oc1cc2c(cc1O)[C@H]1c3ccccc3CN[C@@H]1CC2 | 82 | 44
CCCn1c(NC(=O)CCC2CCCC2)nc2ccccc21 | -2 | -2
CCOC(=O)/C(=C\c1ccsc1)C1=Nn2c(nnc2-c2ccc(OC)cc2)SC1 | 36 | 8
CC(C)[C@H](NC(=O)c1ccccc1)C(=O)Nc1ccc(N2CCOCC2)cc1 | 16 | 0

# Record cards, as listed above. Order of screens: BmaI1 enzyme | BmaI1 enzyme counterscreen
# CCC(C)NC(=O)c1nn(Cc2ccccc2)c(=O)c2ccccc12 (configuration not stated) is listed as 4 | 2
# N#CC(C#N)=C1C=C2C=C(N3CCCCC3)CCC2CC1 (configuration not stated) is listed as 35 | 6
# COc1ccc(CCNc2ncccc2C#N)cc1OC is listed as 19 | 15
# N#CC1(NC(=O)COc2cccc(C(F)(F)F)c2)CCCCC1 is listed as 9 | 8
# CC(C)[C@H](NC(=O)c1ccccc1)C(=O)Nc1ccc(N2CCOCC2)cc1 is listed as 16 | 0

# Reprinted from the results shown for reference:
structure | BmaI1 enzyme | BmaI1 enzyme counterscreen
CCOC(=O)/C(=C\c1ccsc1)C1=Nn2c(nnc2-c2ccc(OC)cc2)SC1 | 36 | 8
CC(C)[C@H](NC(=O)c1ccccc1)C(=O)Nc1ccc(N2CCOCC2)cc1 | 16 | 0

# Next records.
structure | BmaI1 enzyme | BmaI1 enzyme counterscreen
CCC(=O)N(c1nnc(SCC(=O)N2CCCc3ccccc32)s1)C1CC1 | 4 | 3
O=C(Nc1ccnn1C1CCCC1)c1ccc(OC(F)F)cc1 | 8 | 1
Cc1nnc(NC(=O)CCc2c[nH]c3ccccc23)o1 | 37 | 6
O=C(O)CSCc1ccsc1 | 14 | 4
CC(C)CN(CC(C)C)Cn1nc(-c2ccc3c(c2)OCO3)oc1=S | 20 | 6
O=C(O)/C(=C\c1ccncc1)c1ccc(S(=O)(=O)N2CCCCC2)s1 | 1 | 3
COc1ccc(NC(=O)CSCc2nc(-c3ccc(C(C)C)cc3)no2)cc1 | 14 | 6
O=C1NC(c2cccc(O)c2O)Nc2sc3c(c21)CCC3 (configuration not stated) | 83* | 19*
CN1C(=O)C(C#N)=C(c2ccccc2)/C(=C/c2ccc(-c3ccc(F)cc3)o2)C1=O | 24 | 9
Cc1cc(C(=O)COn2nnc3ccc(S(C)(=O)=O)cc32)c(C)n1C | 18 | 10
CCOc1cc(/C=C(\C#N)C(=O)NCc2ccco2)ccc1O | 24 | 6
O=C(Cc1ccc(S(=O)(=O)N2CCOCC2)s1)Nc1ccccc1N1CCOCC1 | -4 | 5
CCNc1sc(C(=O)OCC)c(N)c1C#N | 48 | 20
COc1nc2ccccc2cc1/C=C/C(=O)O | 20 | 30
COC(=O)C12C3CCC4C5C3C1C5(C(=O)OC)C42 (configuration not stated) | 9 | 7
CCS(=O)(=O)c1ccc2oc(SCC(=O)Nc3ccccc3C(F)(F)F)nc2c1 | 11 | 14
Cc1c(C#N)c(NC(=O)CN2CCc3ccccc3C2)n(Cc2ccco2)c1C | -28 | -14
NC(=O)c1ccc(NC(=O)COC(=O)c2ccc(-n3cnnn3)cc2)cc1 | 11 | 8
Cc1cc(C(=O)CN2CCCC2c2cccs2)c(C)n1-c1c(C)n(C)n(-c2ccccc2)c1=O (configuration not stated) | 20 | 14
CCn1c(=O)c(=O)[nH]c2cc(C(=O)Nc3nc4c(s3)CCCC4)ccc21 | -1 | -6
O=C(Cn1[nH]c(=O)c2ccccc2c1=O)OCN1C(=O)c2ccccc2C1=O | 15 | 12
O=C(CCc1nc2ccccc2s1)NCc1cccs1 | 8 | 2
COc1ccc(Cc2nnc3n2N=C(C(C)(C)C)CS3)cc1 | 10 | 4
COc1ccc(S(=O)(=O)N2CCN(C(=O)c3cc(C)oc3C)CC2)cc1 | -2 | -9
CCOC(=O)C(Sc1n[nH]c(N)n1)c1ccccc1 (configuration not stated) | 16 | 14
CC(=O)Nc1cccc(C(=O)N(C)CCOc2ccccc2)c1 | 6 | 11
C=CCN(CC=C)Cn1c(=S)oc2ccc(S(=O)(=O)Nc3ccc(OC)cc3)cc21 | 55 | 16
CCN1CCN(C(=O)C(C)Nc2cc(Cl)c(OC)cc2OC)CC1 (configuration not stated) | 14 | -2
Cc1ccc(CNC2=NCCC2)n1C | 8 | 10
CSc1ncc(C(=O)N2CCN(c3ncccn3)CC2)n1-c1ccccc1 | 10 | -4
N#Cc1ccc(C(=O)OCC(=O)Nc2ccc(N3CCCCC3)cc2)cc1 | 20 | -4
CC(Oc1cccc2c1OC(C)(C)C2)C(=O)N1CCc2ccccc21 (configuration not stated) | 3 | 7
CCCc1cc(=O)[nH]c(SCC(=O)c2cc(C)n(-c3ccc4c(c3)OCO4)c2C)n1 | 12 | 2
O=c1ccc(C(F)(F)F)cn1CN1CCN(S(=O)(=O)c2ccc3c(c2)CCCC3)CC1 | 12 | 0
COc1ccc(C(C(O)C(=O)c2c[nH]c3ccccc23)N2CCN(c3ccccc3)CC2)cc1 (configuration not stated) | 2 | -6
CC1CCC(C(C)C)C(OC(=O)Cn2nnc(-c3ccccc3)n2)C1 (configuration not stated) | 2 | 4
CC(=O)NCc1ccc(-c2csc(NC(=O)c3cnn(-c4ccccc4)n3)n2)cc1 | 10 | 5
CCOC(=O)c1c(C)oc2c1c1c(c3ccccc32)OCN(Cc2ccco2)C1 | 42 | 36
Cc1cc(-c2csc(CC#N)n2)c(C)n1Cc1ccc2c(c1)OCO2 | 16 | -2
Cc1ccc(-c2nc3ccc(C)cn3c2CC(=O)N(C)C)cc1 | 4 | 0
CCCNC(=O)CSc1nnc(SCC(=O)NCCCn2nc(C)cc2C)s1 | 16 | 4
Cc1cc(C)n(CCCNC(=O)c2ccc3ccccc3c2)n1 | 18 | 10
CCc1cc(CN2CCOCC2)c(NC(=O)c2ccccc2)s1 | 30 | 16
CC(C)(C)Nc1n[nH]c(=S)s1 | 110 | 98
O=C(CSc1nnc(-c2cccs2)n1-c1ccccc1)NCCC1=CCCCC1 | 11 | 7
Cc1ccccc1OCC(O)CN(C)C (configuration not stated) | 16 | 13
O=C(O)C(Cc1ccccc1)NS(=O)(=O)c1ccccc1 (configuration not stated) | 18 | -1
Cc1noc(C)c1COC(=O)c1ccccc1NC(=O)c1ccco1 | 16 | 10

# Rewritten with values under each structure: two of the compounds above.
# Each structure is followed by: BmaI1 enzyme	BmaI1 enzyme counterscreen
Cc1noc(C)c1COC(=O)c1ccccc1NC(=O)c1ccco1
    16	10
CC(=O)NCc1ccc(-c2csc(NC(=O)c3cnn(-c4ccccc4)n3)n2)cc1
    10	5

# Other entries:
structure | BmaI1 enzyme | BmaI1 enzyme counterscreen
CCCCCc1nnc(NC(=O)c2cccc(S(=O)(=O)N3CCCC3)c2)s1 | 9 | 8
CC(C)C(C)(C#N)NC(=O)CSc1nc(N)cc(=O)[nH]1 (configuration not stated) | 10 | 8
O=C(Cn1cc(C(F)(F)F)ccc1=O)Nc1ccc(S(=O)(=O)N2CCCC2)cc1 | -4 | 0
O=C(COc1ccc(-n2cnnn2)cc1)Nc1ccccc1 | 16 | 14
Cc1cc(=O)[nH]c2ccccc12 | -2 | -6
O=C(NCc1ccccc1)c1ccccc1NCC(=O)N1CCCCC1 | -5 | -3
CC(=O)Nc1ccccc1O | 40 | -11
COc1cc(C)cc(OC)c1OCC(=O)Nc1cccc(C#N)c1 | 11 | 1
Cc1cc(C)c2nc(SCc3nnc(-c4ccccc4)o3)cc(C)c2c1 | 6 | 0
Cc1sc2ncnc(N3CCc4ccccc43)c2c1C | 8 | 6
CSc1ncccc1C(=O)Oc1ccc2c(c1)OCO2 | 4 | 8
CC1CCCCN1C(=O)COC(=O)c1ccc(-n2cnnn2)cc1 (configuration not stated) | 10 | 8

# The closing 6 compounds of the section before are carried over, then new ones follow.
structure | BmaI1 enzyme | BmaI1 enzyme counterscreen
CC(=O)Nc1ccccc1O | 40 | -11
COc1cc(C)cc(OC)c1OCC(=O)Nc1cccc(C#N)c1 | 11 | 1
Cc1cc(C)c2nc(SCc3nnc(-c4ccccc4)o3)cc(C)c2c1 | 6 | 0
Cc1sc2ncnc(N3CCc4ccccc43)c2c1C | 8 | 6
CSc1ncccc1C(=O)Oc1ccc2c(c1)OCO2 | 4 | 8
CC1CCCCN1C(=O)COC(=O)c1ccc(-n2cnnn2)cc1 (configuration not stated) | 10 | 8
CN=c1scc(-c2c[nH]c3ccccc23)n1C | 67 | 10
O=C(CO/N=C/c1cccs1)N1CCCc2ccccc21 | 6 | -4
CCOC(=O)c1oc2ccccc2c1COC(=O)c1ccccc1OCC | 14 | 4
COc1ccc(NS(=O)(=O)c2ccc3oc(SC)nc3c2)cc1 | 60 | 4
Cc1nc2cc(C(=O)OCC(N)=O)ccc2n1-c1ccccc1 | -12 | -9
CCC(C)NC(=O)c1nn(C)c(=O)c2ccccc12 (configuration not stated) | 4 | -2
O=c1[nH]nc(-c2ccco2)o1 | 96* | -7.0*
Cc1cc(C)n(CCCNC(=O)c2ccc(S(=O)(=O)N3CCCCCC3)cc2)n1 | 37 | 5
N/C(=N\O)C12CC3CC(CC(C3)C1)C2 | 57 | 3
N#CCCn1c(SCC(=O)N2CCCC2c2ccc3c(c2)OCCCO3)nc2ccccc21 (configuration not stated) | 11 | 5
COC(=O)c1c(C)[nH]c(C(=O)CN(C)Cc2cccc(OC)c2)c1C | 4 | 4
O=c1c2ccccc2nnn1CSc1nncs1 | 9 | 0
CCc1nc2ccccc2c(C(=O)OCC(=O)N(C)C)c1C | 2 | 1
Cc1nc(SCC(=O)N(C)C2(C#N)CCCCC2)c2ccccc2n1 | 20 | 9
CCOc1ccc(OCC(O)CNC2CC(C)(C)NC(C)(C)C2)cc1 (configuration not stated) | 30 | 8
CCOc1cc(-n2c(C)ccc2C)c(OCC)cc1N1CCOCC1 | 16 | -8
O=C(CN1C(=O)C2CC=CCC2C1=O)NCC(F)(F)F (configuration not stated) | 6 | 1
Cc1ccccc1-n1cnnc1SCC(=O)Nc1ccc(S(=O)(=O)N2CCCC2)cc1 | 16 | 6
CCCc1cc(=O)[nH]c(SC(C)C(=O)NCc2ccccc2)n1 (configuration not stated) | -6 | -6
COc1cc(CN(C)Cn2cnc3ccccc32)ccc1OC(F)F | 12 | 6
Cc1cc(C)cc(-c2nnc(SC(C)c3nc4ccccc4c(=O)[nH]3)o2)c1 (configuration not stated) | 29 | 12
Cc1ncc(CC(=O)n2cc(C(=O)c3cc(F)ccc3O)cn2)s1 | -6 | -6
CCOc1ccc(C(CNC(=O)C(CC)c2ccccc2)N2CCOCC2)cc1OC (configuration not stated) | -6 | -10
CCn1cnc2c1c(=O)n(CC(=O)Nc1cccc(OC)c1)c(=O)n2Cc1ccccc1 | 20 | 13
COc1ccc(C2NC(=O)NC3=C2C(=O)CC(C)(C)C3)cc1OC (configuration not stated) | 14 | 3
Cc1ccc(NC(=O)CSCc2c(C)noc2C)cc1C | -2 | 0
O=C(c1ccc(Cl)cc1)N(c1ccccn1)c1ccccn1 | 12 | 15
Cc1noc(C)c1COC(=O)/C=C/c1cn(Cc2ccccc2)nc1-c1cccs1 | 18 | 8
CCOC(=O)c1sc(N)c(C#N)c1COC(=O)CSc1nnc(-c2ccco2)o1 | 22 | 12
Cc1ccccc1Nc1nc(N)nc(COc2ccc(F)c(Cl)c2)n1 | 8 | -2
NC(=O)N/N=C1\CCCc2ccccc21 | -6 | -5
CC[C@@H](C(N)=O)N1CCCC1=O | 4 | 6
Cc1nc(N2CCCC2)sc1C(=O)c1oc2ccccc2c1C | 20 | 17
CCOC(=O)c1cc(NC(=O)/C=C2/N(C)c3ccccc3C2(C)C)c(C)nc1C | 16 | 6
CC(C)N(Cc1ccccc1)C(=O)Cn1c(=O)oc2ccccc21 | -18 | -1
O=c1c(-c2cccs2)nc2ccccc2n1C1CCCCC1 | 5 | 0
Cc1nc(-c2ccc3c(c2)OCCO3)cs1 | 64 | 14
CN(CCOc1ccc(Cl)cc1)Cn1nnc2ccccc2c1=O | 8 | 6
Cc1nn(-c2ccccc2)c(N2CCCC2)c1/C=N/N=c1\sc2ccccc2n1C | 22 | 38
O=C1CN(C(=O)CCC(=O)c2ccc(Br)cc2)CCN1 | -3 | -9
O=C1C2CC=CCC2C(=O)N1CCOc1cccc(Br)c1 (configuration not stated) | 30 | 14
O=C(O)Cn1c(=O)c(F)cn(C2CCCO2)c1=O (configuration not stated) | 16 | 5
O=S(=O)(c1ccc(N=C=S)cc1)N1CCOCC1 | 13 | -3
O=C(O)CNS(=O)(=O)Cc1ccccc1 | 6 | 2
CCS(=O)(=O)CCn1c([N+](=O)[O-])cnc1C | 8 | 17
C=CCNC(=O)CSc1nc2ccccc2o1 | 9 | 0
C[C@H](NC(=O)Cc1cccc2ccccc12)C(=O)N1CCOCC1 | 6 | 2
CCOc1ccc(-c2nc(CNCCN3CCOCC3)cs2)cc1OC | 10 | 8
Cc1cc(C(=O)COC(=O)c2ccc(S(=O)(=O)N3CCCCC3)cc2)c(C)n1CC1CCCO1 (configuration not stated) | 10 | 7
CC1CC(C)CN(C(=O)C(C)Sc2nnc(N)s2)C1 (configuration not stated) | 15 | 8
CCCCn1nc(C(=O)Nc2nc(SC)ns2)ccc1=O | 3 | 3
Cc1cc(C(=O)COc2ccc(-n3ccnc3)cc2)c(C)n1-c1ccc2c(c1)OCO2 | 16 | 13
CSc1cccc(N2CC(C(=O)N3CCCCC3C(N)=O)CC2=O)c1 (configuration not stated) | 14 | 0
CN1CCN2c3ncccc3Cc3ccccc3C2C1 (configuration not stated) | 9 | 12
Fc1cccc(Cl)c1CSc1nnc(-c2c[nH]c3ccccc23)o1 | 17 | 2
